Bioassay records: PubChem BioAssay, National Center for Advancing Translational Sciences (NCATS)
Vaccinia Venus – qHTS for Stage-Specific Inhibitors of Vaccinia Orthopoxvirus: Venus Reporter Primary qHTS; actives 0.46% (n = 330,000); Vaccinia virus Venus reporter expression, fluorescence; AID 720580, 2013; Potency, µM (titrated, usually from 36.5 µM), inactives show at the top dose activity change, negative = inhibition, actives largely listed as inhibitors; active means well fitted inhibition curve with a large enough effect; inconclusive means small, poorly fitted or top-dose-only effect; inactive means no such curve, though single readings can be large or run the other way; tested in A549 cells; note: nearly all actives have a fitted effect of over 30% in size; inactives centre near -10
VACV mCherry inh – qHTS for Stage-Specific Inhibitors of Vaccinia Orthopoxvirus: mCherry Reporter Primary qHTS; Vaccinia virus mCherry reporter infection, fluorescence; about a quarter of the inactives have no number; Potency, µM (series often up to 36.5 µM), for inactives: at the top dose activity change, negative = inhibition, usual class: inhibitors; actives 0.63% (n = 310,000); AID 720579, 2013; active = well fitted inhibition curve with a large enough effect; inconclusive = small, poorly fitted or top-dose-only effect; inactive = no such curve, though single readings can be large or run the other way; tested in A549 cells; note: nearly all actives have a fitted effect of over 35% in size; inactives centre near -10
Starred values were filed as active, the others as inactive; i = inactive; ? = inconclusive; . = not tested or not shown; [ ] = dose if it differs, or a comment. % is set by controls: 0 for no effect and ±100 for the full control effect; potency is the fitted concentration of half-maximal effect.

Start of the data: the first 5 entries, ahead of the listing:
SMILES | Vaccinia Venus | VACV mCherry inh
CN(CC1COCCO1)C(=O)c1cnn(-c2ncc3c(n2)-c2ccccc2CCC3)c1C1CC1 (configuration not stated) | -14% | -24%
COc1cccc(N(CC(=O)Nc2cccnc2)S(C)(=O)=O)c1 | -6% | i
CC(C)(C)NC(=O)CSc1nccn1Cc1ccccc1 | -3% | -15%
CCN1CCc2c(sc(-n3cccc3)c2C(C)NC(=O)Nc2ccc(Br)cc2)C1 (configuration not stated) | -16% | -14%
CC(=O)NNC(=O)CC(=O)Nc1nc(C23CC4CC(CC(C4)C2)C3)cs1 | -10% | -1%

The whole of this part, repeating the preview:
SMILES | Vaccinia Venus | VACV mCherry inh
CN(CC1COCCO1)C(=O)c1cnn(-c2ncc3c(n2)-c2ccccc2CCC3)c1C1CC1 (configuration not stated) | -14% | -24%
COc1cccc(N(CC(=O)Nc2cccnc2)S(C)(=O)=O)c1 | -6% | i
CC(C)(C)NC(=O)CSc1nccn1Cc1ccccc1 | -3% | -15%
CCN1CCc2c(sc(-n3cccc3)c2C(C)NC(=O)Nc2ccc(Br)cc2)C1 (configuration not stated) | -16% | -14%
CC(=O)NNC(=O)CC(=O)Nc1nc(C23CC4CC(CC(C4)C2)C3)cs1 | -10% | -1%
CC(C)c1ccc(N(C(=O)c2csnn2)C(C(=O)NC(C)(C)C)c2cccnc2)cc1 (configuration not stated) | -1% | -11%
COc1ccc(CC(=O)NC(C)CCc2ccccc2)cc1OC (configuration not stated) | -8% | -8%
CCCNC(=O)C1(C)CCCN(Cc2ccccc2C#N)C1 (configuration not stated) | 3% | 9%
Cc1cccc(NC(=O)Cn2ccn(-c3ccc4c(c3)OCCO4)c(=O)c2=O)c1 | -2% | -13%
O=C(O)c1ccc(Nc2nc(-c3cc4ccccc4oc3=O)cs2)cc1O | -4% | -15%
CCCCn1c(-c2ccc(C)cc2)c(C)n2c3c(=O)n(C)c(=O)n(C)c3nc12 | -16% | -8%
Cc1cccc2c1-c1sc(C(=O)Nc3cccc([N+](=O)[O-])c3C)cc1CO2 | -20% | -27%
CCOCCCNC(=O)C1CCC(=O)N1CCc1ccccc1 (configuration not stated) | -13% | .
C(=C\c1nccc2ccccc12)/c1ccc(N2CCOCC2)cc1 | -17% | -26%
Cc1ccnc2nc(C(=O)OCC(=O)N(C)C3CCCCC3)nn12 | 5% | i
Cc1ccc(Cc2c(-c3cccc(Cl)c3)nc3ccc(Br)cn23)cc1 | -21% | -11%
O=C(NCC1CCCO1)C(=O)NCC(c1ccco1)N1CCN(c2ccc(F)cc2)CC1 (configuration not stated) | -1% | -8%
O=C(NCCC1=CCCCC1)c1ccc2c(c1)ncn2-c1cccc(Cl)c1 | -4% | -8%
CCN(CC)c1ccc(C(=O)N/N=C(\C)c2ccc(OC)c(OC)c2)cc1 | -12% | -30%
CCNC(=O)c1ccc(-n2nc(C(F)(F)F)c3c2CCCC3)cc1 | -13% | -3%
FC(F)(F)c1ccccc1NC(=S)N1CCCCCC1 | -6% | -7%
Cn1c(=O)n(C)c2cc(N3CCOCC3)c(NC(=O)c3c(F)cccc3F)cc21 | -3% | -13%
COC(=O)c1cc(C(=O)NCC2CCCCC2)cc([N+](=O)[O-])c1 | -14% | -17%
Cc1cc(C)c2ccccc2n1 | -13% | -15%

Structural class: the entries above containing sulfur.
SMILES | Vaccinia Venus | VACV mCherry inh
COc1cccc(N(CC(=O)Nc2cccnc2)S(C)(=O)=O)c1 | -6% | i
CC(C)(C)NC(=O)CSc1nccn1Cc1ccccc1 | -3% | -15%
CCN1CCc2c(sc(-n3cccc3)c2C(C)NC(=O)Nc2ccc(Br)cc2)C1 (configuration not stated) | -16% | -14%
CC(=O)NNC(=O)CC(=O)Nc1nc(C23CC4CC(CC(C4)C2)C3)cs1 | -10% | -1%
CC(C)c1ccc(N(C(=O)c2csnn2)C(C(=O)NC(C)(C)C)c2cccnc2)cc1 (configuration not stated) | -1% | -11%
O=C(O)c1ccc(Nc2nc(-c3cc4ccccc4oc3=O)cs2)cc1O | -4% | -15%
Cc1cccc2c1-c1sc(C(=O)Nc3cccc([N+](=O)[O-])c3C)cc1CO2 | -20% | -27%
FC(F)(F)c1ccccc1NC(=S)N1CCCCCC1 | -6% | -7%

Record cards, as listed above. Screens in order: Vaccinia Venus | VACV mCherry inh
CCNC(=O)c1ccc(-n2nc(C(F)(F)F)c3c2CCCC3)cc1 in the list: -13% | -3%
Cc1ccc(Cc2c(-c3cccc(Cl)c3)nc3ccc(Br)cn23)cc1 in the list: -21% | -11%

Additional entries follow.
SMILES | Vaccinia Venus | VACV mCherry inh
COc1ccc(CCNS(=O)(=O)c2cn(C)nc2C)cc1OC | -9% | -7%
CCNc1nc(OC)nc(Oc2ccc(=O)n(-c3ccccc3)n2)n1 | -8% | -13%
CCCCSc1nnc2n(-c3ccc(OC)cc3)c(=O)c3c4c(sc3n12)COC(C(C)C)C4 (configuration not stated) | -22% | -16%
Cc1c(CN2CCOc3c(cc(-c4ncc(C(F)(F)F)cc4Cl)cc3OCC3CCCO3)C2)cnn1C (configuration not stated) | -18% | i
Cc1ccc(SCCC(=O)Nc2cccnc2)cc1 | -10% | i
COc1ccccc1/C=N/NC(=O)c1ccc(Cn2nc([N+](=O)[O-])cc2C)cc1 | -19% | ?
Cc1nc2c(-c3ccccc3)c(C)nn2c(C)c1CCC(=O)NCc1ccccc1Cl | -5% | -7%
O=C(/C=C1\SC(=O)NC1=O)Nc1ccc(F)cc1 | 6% | i
Cn1c(SCC(=O)Nc2cccnc2Cl)nc2ccccc21 | -17% | -5%
CN(C)c1cc2c3ccccc3ccc2c2ccccc12 | -6% | -13%
COc1ccccc1CNC(=O)c1ccc(-c2nc(CS(=O)c3ccccc3)c(C)o2)cc1 (configuration not stated) | -11% | -5%
Cc1c(Cl)cccc1NC(=O)C(C)n1c(=O)cc(C)c2c(C)nn(-c3ccccc3)c21 (configuration not stated) | 7% | -10%
Cc1ccc(-c2nn(Cc3ccccc3)cc2/C=C/C(=O)O)cc1C | -12% | .
O=C(Nc1nnc(-c2ccncc2)o1)c1ccc(Br)s1 | -21% | -2%
Cc1nn(C)c(C)c1/C=N/NC(=O)c1csc2ccccc12 | 0% | -12%
CCOC(=O)c1c(C)[nH]c(C)c1S(=O)(=O)N1CCN(c2cccc(C(F)(F)F)c2)CC1 | -8% | -10%
NC1=NC(=O)NC1(c1ccccc1)c1ccccc1 | -5% | i
COC(=O)C1=C(c2ccc(F)cc2OCc2ccccc2)C[C@@H]2CC[C@H]1N2C(=O)NCc1ccccc1Cl | ? | i
COC(=O)C(Cc1c[nH]c2ccccc12)NC(=O)C1CC1 (configuration not stated) | -16% | -22%
CC[C@]12c3[nH]c4ccccc4c3CCN1C(=O)C(CC(=O)NCCN1CCOCC1)C[C@@H]2C(=O)N1CCN(C(=O)c2ccco2)CC1 (some centres not stated) | -6% | i
CCCCCNC(=O)c1cn(CC)c2cc(N3CCN(C)CC3)c(F)cc2c1=O | ? | ?
Cc1cc(Cl)c(OCCOCCN2CCN(C)CC2)c(Br)c1 | -11% | i
O=C(NCc1cccnc1)c1cc(C2CCCN(S(=O)(=O)c3cccs3)C2)on1 (configuration not stated) | -3% | -7%
Cc1ccc(C(=O)Nc2nc3n(n2)C(c2ccccc2)CC(=O)N3)cc1 (configuration not stated) | -15% | -10%
Cc1nc2c(C(=O)NCCc3ccc(Cl)cc3)c[nH]n2c(=O)c1Cc1ccccc1F | -9% | 5%
Cn1c(=O)c2sccc2n2c(CCCC(=O)NC3CCCCC3)nnc12 | -5% | -4%
COc1ccc(Cl)cc1NC(=O)/C=C/C(=O)O | -7% | i
COc1ccc(C(c2nnnn2-c2c(C)cccc2C)N2CCN(C/C=C/c3ccccc3)CC2)cc1 (configuration not stated) | -11% | i
NC(=S)N(c1ccccc1)c1ccccc1 | -1% | -10%
CCCn1c(SCC(=O)Nc2cccc(S(=O)(=O)NC3=NCCCCC3)c2)nc2ccccc2c1=O | -22% | -13%
Cc1nc(C(=O)NNC(=O)c2ccc(Cl)cc2)cs1 | -8%[7.34 µM] | -17%[7.34 µM]
OC(c1ccc(F)cc1)c1nc(-c2ccccc2)cs1 (configuration not stated) | -25% | 5%
Cc1ccc2c(c1)CC(C)N2S(=O)(=O)c1nnc(NC(=O)C(C)C)s1 (configuration not stated) | -15% | -10%
Cc1cc(C)nc(-n2nc(C)c3c2N(Cc2ccccc2C)C(=O)CC3c2ccc(Cl)cc2)n1 (configuration not stated) | -5% | 3%
Cc1cc(NC(=O)Cn2cnc3c2c(=O)n(C)c(=O)n3C)n(-c2ccccc2)n1 | -1% | .
Cc1cc2occ(CC(=O)N(C)CC(=O)Nc3c(C)cccc3C)c2cc1C | -28% | -11%
N#Cc1ccc(C23CC4(C2)[C@H](CN(Cc2ccc(C(F)(F)F)cc2)[C@@H]4c2ccccc2)C3c2ccccc2)cc1 (some centres not stated) | -5% | i
Cc1cccc(NC(=O)c2cccc(S(=O)(=O)Nc3ccccc3C(=O)O)c2)c1 | -4% | i
CCC(Sc1ncnc2sc3c(c12)CCCC3)C(=O)OCC(C)C (configuration not stated) | 12% | 1%
O=C(CCCO)CCCCCCCCC[C@H]1N[C@H](CO)[C@@H](O)[C@@H]1O | -1% | i
CCCCN1C(=O)C(CC(=O)NCc2ccco2)CC(C(=O)N(C)C)=C1C (configuration not stated) | -6% | -5%
CCC(=O)Nc1ccc(S(=O)(=O)NCC2CCCO2)cc1 (configuration not stated) | -15% | -13%
CC(=O)Nc1cc(-c2cccc(N)c2)cn2c(-c3ccc(C(C)=O)cc3)cnc12 | -21% | -4%
Cc1cc2[nH]cnc2c([N+](=O)[O-])c1C | -2% | -15%
CC1CC(CCN)(c2ccccc2)C(C)CN1C (configuration not stated) | 7%[7.34 µM] | i[7.34 µM]
CCOc1ccc(C(=O)Nc2cccc(-n3cnnn3)c2)cc1OCC | -13%[7.34 µM] | -13%[7.34 µM]
CCCCCCC(=O)N/N=C/c1c(O)n(CCCC)c(=S)[nH]c1=O | -24% | -1%
O=C(NCCCN1CCN(c2ccccc2F)CC1)C1CCC(=O)N1C1CCCCC1 (configuration not stated) | 0% | i
O=C(O)c1cccc(NC(=O)c2ccc(Cl)c(S(=O)(=O)N3CCCCCC3)c2)c1 | -4% | -2%
CCCNC(=O)C1(C)CCN(C(=O)/C=C/c2ccccc2)C1 (configuration not stated) | 3% | 3%
CCN1CCN(C(=O)C(C)Nc2ccc(OC)cc2OC)CC1 (configuration not stated) | 8% | -16%
COCCCNC(=O)CCc1c(C)nc2nc(-c3cc(OC)cc(OC)c3)nn2c1C | 8% | 0%
O=C(CN1CCN(Cc2ccccc2Cl)C1=O)NCCc1ccc(Cl)cc1 | -3% | -4%
O=C(Nc1ccncc1)c1ccc(NS(=O)(=O)c2ccc3[nH]c(=O)[nH]c3c2)cc1 | -1% | i
O=C1C2C3C=CC(C2C(=O)N1C1CCCCC1)C1C(=O)N(C2CCCCC2)C(=O)C31 (configuration not stated) | -26% | .
CC(/C=C/c1ccco1)=N\NC(=O)CNc1ccc2ccccc2c1 | -10% | -25%
Cc1cccc(N(CC(=O)N2CCCC2)S(=O)(=O)c2ccccc2)c1C | -4% | i
CCc1cc2c(C)ccc(C)c2nc1SCC(=O)Nc1cc(C)on1 | -3% | -24%
CCc1cccc(NC(=O)C2CCCN2S(=O)(=O)c2ccc3nc(-c4ccccc4)[nH]c3c2)c1 (configuration not stated) | ? | ?
CCN(c1ccccc1)S(=O)(=O)c1ccc(Cl)c(NC(=O)COC(=O)c2ccc[nH]c2=O)c1 | 1% | -2%

New compounds follow.
SMILES | Vaccinia Venus | VACV mCherry inh
CCOc1cc(S(=O)(=O)N(CC)CC)ccc1Cl | -4% | -6%
COc1ccccc1-c1cc(C(F)(F)F)nc(S(=O)(=O)CCCC(=O)Nc2cc(OC)c(OC)c(OC)c2)n1 | -16% | -3%
Cc1cc(C)nc(SC2c3cccc4cccc(c34)C2NS(=O)(=O)c2ccccc2)n1 (configuration not stated) | ? | ?
COCCNC(=O)Cn1nc(C(F)(F)F)cc1C | -10% | i
O=C(CNS(=O)(=O)c1ccc(Br)cc1Cl)OCC(=O)c1ccc[nH]1 | 0% | -10%
O=C(OCC(=O)N1CCCCCC1)c1n[nH]c(=O)c2ccccc12 | 0% | -2%
COc1ccc(C(NC(=O)C2CCN(CCCc3ccccc3)CC2)c2cccs2)cc1 (configuration not stated) | -17% | -8%
CC1(C(=O)N2CCCCC2)CCN1C(=O)Cc1ccc(-c2ccccc2)cc1 (configuration not stated) | -9% | i
CCc1cc(=O)[nH]c(SCc2nc(-c3ccccc3C)no2)n1 | -2% | -13%
CN1CCN(c2ccc(C(CC(N)=O)NC(=O)Cc3ccc(Br)cc3)cc2[N+](=O)[O-])CC1 (configuration not stated) | -7% | i
O=c1c(-c2cccnc2)nc2ccccc2n1C(CCc1ccccc1)c1nc2ccccc2[nH]1 (configuration not stated) | 8% | 4%
COC(=O)c1ccc(Nc2ncnc3c2cnn3-c2cccc(C)c2)cc1 | -18% | -20%
C=CCc1cc(/C=N/NC(=O)CSc2nnc(CCCc3ccc(OC)cc3)o2)cc(OC)c1O | 7% | .
CCCC(=O)NC(Nc1ccc(S(=O)(=O)Nc2cc(C)on2)cc1)(C(F)(F)F)C(F)(F)F | 5% | -6%
Cc1ccc(NC(=O)Cc2ccc(NC(=O)N3CCCCc4ccccc43)cc2)cc1Cl | -17% | -15%
Cc1ccccc1NS(=O)(=O)c1ccc(OCCNS(C)(=O)=O)cc1 | -4% | -14%
CCSc1nc2cc(C(=O)OC)ccc2c(=O)n1CC | -4% | i
